High-throughput results deposited in PubChem BioAssay by National Center for Advancing Translational Sciences (NCATS).
CtBP-E1A inh: qHTS Assay for Inhibitors of the CtBP/E1A Interaction; CtBP / adenovirus E1A interaction (AlphaScreen); AlphaScreen GST-E1A/His-CtBP binding, 1536-well; active compounds read low; control for the full effect not named in the record; activity change, % (concentration not given with the values); actives 0.49% (n = 340,000); AID 651724, 2012; in the data active means activity change below about -65%; inconclusive means about -30% to -65%; inactive means above about -30%; also: % is scaled to controls: 0 for no effect and ±100 for the full control effect
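In 5 uL wells, 23 nL compound meets equimolar GST-E1A and His-CtBP (5X stock 125 nM each) for 2 h, 37 °C. Beads (5X, 50 ug/mL) then 1 h, 37 °C, dark.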
D2 agonist: Beta-Arrestin HTS for Positive Allosteric Modulators of the Human D2 Dopamine Receptor: Agonists. DiscoveRx PathHunter D2 beta-arrestin, luminescence, 90 min; 100% = 57 uM dopamine signal. activation, % (test concentration not listed). actives 0.084% (n = 360,000); in the data active = activation above about 40%; inconclusive = about 15% to 40%; inactive = below about 15%; also: compound concentration not given in the record; the text of the record calls up to 30% inactive
Target sequence (P14416 whole entry, looked up): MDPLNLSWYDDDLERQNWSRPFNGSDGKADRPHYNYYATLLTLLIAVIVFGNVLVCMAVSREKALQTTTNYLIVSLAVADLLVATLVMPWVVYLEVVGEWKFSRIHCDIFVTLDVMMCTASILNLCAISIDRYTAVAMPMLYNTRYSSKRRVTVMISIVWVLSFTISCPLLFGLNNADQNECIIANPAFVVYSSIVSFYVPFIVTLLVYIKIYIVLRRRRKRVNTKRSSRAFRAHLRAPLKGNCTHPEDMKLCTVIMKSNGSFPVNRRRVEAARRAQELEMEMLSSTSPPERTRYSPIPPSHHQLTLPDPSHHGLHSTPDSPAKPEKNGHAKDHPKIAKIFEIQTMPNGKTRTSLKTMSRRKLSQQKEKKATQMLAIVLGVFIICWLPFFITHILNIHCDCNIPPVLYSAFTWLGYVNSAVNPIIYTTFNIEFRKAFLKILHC
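DiscoveRx PathHunter D2 beta-arrestin cells (2,100/well) attached overnight, then compound-stimulated 90 min at 37 C in HBSS/10 mM HEPES/0.1% Tween-20 buffer; beta-galactosidase complementation read by luminescence after 1 h at ambient temperature. Dopamine 57 uM final (EC100) as control.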
PINK1 expr mod: A Quantitative High throughput Screen to Identify Chemical Modulators of PINK1 Expression. PINK1 immunofluorescence, high-content cytometry, 24 h. Potency, µM (doses to about 76.6 µM), without a hit: top-dose activation (PINK1 increase), hits mostly activators. actives 0.2% (n = 410,000); active = well fitted activation curve with a large enough effect; inconclusive = small, poorly fitted or top-dose-only effect; inactive = flat fitted curve, though single readings scatter; cell line not stated here;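 also: potency is read from the fitted curve at half-maximal effect; % of control where 0% means no effect; nearly all actives have a fitted effect of over 65% in size; a mitochondrial uncoupler was the plate control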
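Cells are seeded, rested 12 hours, then given compound at five concentrations or DMSO for 24 hours. After fixation, blocking and antibody staining, PINK1 amount and mitochondrial localization are scored; CCCP serves as control.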
Six1-Eya2 blk: qHTS Assay for Inhibitors of the Six1/Eya2 Interaction; activity change, % (no concentration beside the values); Homeobox protein SIX1 (Homo sapiens) + Protein phosphatase EYA2 (Homo sapiens), …; AlphaScreen GST-Six1/His-Eya2 binding, biochemical; active compounds read low; control for the full effect not named in the record; actives 0.56% (n = 360,000); in the data active = activity change below about -65%; inconclusive = about -30% to -65%; inactive = above about -30%; also: % is scaled to controls: 0 for no effect and ±100 for the full control effect
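Six1/Eya2 binding was read as AlphaScreen signal after compounds were pinned into GST-Six1 plus His-tagged Eya2 (5X stock 250/500 nM) in pH 8.0 Tris/NaCl/TCEP buffer, beads added, then incubated 1 h, 37 C, dark.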
TRPML1 ag: qHTS for Agonists of the Human Mucolipin Transient Receptor Potential 1 (TRPML1); actives 0.12% (n = 410,000); TRPML1-expressing cells, Ca2+ dye fluorescence, FDSS; host cell line not named in the record; reference of the full effect not given here; Mucolipin-1 (Homo sapiens), Q9GZU1; activation, % (concentration not given with the values); in the data active = activation above about 50%; inconclusive = about 30% to 50%; inactive = below about 30%; also: 0% is about no effect; the text of the record puts the active cut at 80%
Target sequence (Q9GZU1 whole entry, looked up): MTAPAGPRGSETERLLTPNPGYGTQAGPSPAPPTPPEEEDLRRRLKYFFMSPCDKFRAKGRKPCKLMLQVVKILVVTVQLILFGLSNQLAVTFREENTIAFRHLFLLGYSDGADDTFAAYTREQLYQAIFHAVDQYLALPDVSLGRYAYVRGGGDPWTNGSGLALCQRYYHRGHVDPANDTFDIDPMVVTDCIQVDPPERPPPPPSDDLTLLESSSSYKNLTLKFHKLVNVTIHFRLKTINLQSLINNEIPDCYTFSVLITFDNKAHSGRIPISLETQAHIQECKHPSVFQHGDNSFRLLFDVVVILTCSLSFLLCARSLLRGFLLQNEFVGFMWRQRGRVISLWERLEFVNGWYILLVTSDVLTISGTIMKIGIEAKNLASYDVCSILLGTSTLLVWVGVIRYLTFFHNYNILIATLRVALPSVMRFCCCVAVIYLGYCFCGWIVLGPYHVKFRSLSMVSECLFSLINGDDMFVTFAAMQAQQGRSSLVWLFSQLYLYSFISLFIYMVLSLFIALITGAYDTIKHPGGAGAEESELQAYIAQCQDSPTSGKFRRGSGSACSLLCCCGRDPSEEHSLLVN
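Agonist activity was taken from a 110 s kinetic Ca2+ dye read on the FDSS after pinning compounds onto TRPML1-DL cells. The cells were seeded at 1,500/well with Tet inducer, incubated about 16 h, then dye-loaded at room temperature.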
D2 potentiator: Beta-Arrestin HTS for Positive Allosteric Modulators of the Human D2 Dopamine Receptor: Potentiators; DiscoveRx D2 beta-arrestin cells, luminescence, 90 min; 100% = 57 uM dopamine signal; AID 624464, 2012; actives 0.23% (n = 360,000); D(2) dopamine receptor (Homo sapiens), P14416; potentiation, % (test concentration not listed); active = potentiation of 50% or more; inconclusive = 30% to 50%; inactive = 30% or less;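 also: compound concentration not given in the record; tested on top of an EC20 dose of dopamine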
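PathHunter beta-arrestin assay in DiscoveRx D2 cells. Compounds were added with an EC20 of dopamine (50 nM final) for 90 min at 37 deg C. Luminescence was read 1 h after detection reagent, with 57 uM dopamine as the EC100 control.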
* hit, by the source's call; u = inconclusive; x = no result given; & = joins results of further samples; [ ] = remark or other dose.

item	Molecule	CtBP-E1A inh	D2 agonist	PINK1 expr mod	Six1-Eya2 blk	TRPML1 ag	D2 potentiator
1	CCCn1c2ccccc2c2cnn(CC(=O)NCCCN3CCCCC3)c(=O)c21	x	-2.3	0.8%&2.5%	-22	0.9&2.3	-13
2	CCOC(=O)C1CCCN(C(=O)COC(=O)c2cc(=O)c3ccccc3o2)C1 (stereo not given)	6	-1.2	-1.6%[38.3 µM]	5	0.1	4
3	N#Cc1ccc(OCC(=O)NNC(=S)NC2CCCCC2)cc1	-22	1.2	-1.9%	0	0.2	-8
4	CC(C)(C)c1ccc(NC(=O)C2=CC=CN3CCS(=O)(=O)N=C23)cc1	6	-0.5	4.9%	-1	0.0	1
5	NC(=O)c1ccc(NC(=O)COc2ccc(-n3cnnn3)cc2)cc1	-5	2.2	0.5%	-3	-0.2	2
6	CC1(C)CC(=O)C/C(=N\NC(=S)NCc2ccccc2)C1	8	-4.6	0.9%	2	2.5	-4
7	CCOCCCN(C(=O)Cn1nnc(-c2ccc(C)o2)n1)C(C(=O)NC1CCCC1)c1ccco1 (stereo not given)	4	0.3	3.7%	16	-0.6	-10
8	N#Cc1cccc(NCC(=O)Nc2ccc3c(c2)OCCO3)c1	4	3.1	2.0%	7	-0.5	-11
9	COc1cc(C(=O)NCc2ccc3c(c2)OCO3)c([N+](=O)[O-])cc1OC	x	-2.2	2.0%	-2	-0.1	-6
10	CC(C)C(C)NC(=O)COc1ccc(OCc2ccccc2)cc1 (stereo not given)	6	-0.8	0.5%	6	3.2	-2
11	CCOC(=O)c1cc(-c2cccc(C(F)(F)F)c2)nc2nc(SC)[nH]c(=O)c12	1	-1.8	-0.1%	-6	-0.8	-2
12	Cc1cccc2sc(NC(=O)c3cc(S(=O)(=O)N(C)C)ccc3N3CCCC3)nc12	-12	-1.3	0.6%	0	-0.4	-1
13	O=C(NC1CCCCC1)C(c1ccc(F)cc1)N(C(=O)c1cccs1)c1ccc2c(c1)OCO2 (stereo not given)	4	-2.5	4.0%[38.3 µM]	1	0.4	-1
14	COc1ccc(CNC(=O)Cn2nc(C(F)(F)F)c(Br)c2C)cc1	8	0.7	2.6%	2	3.4	0
15	N#CC1(NC(=O)CN2CCc3ccccc3C2)CCCC1	4	3.6	0.1%	-2	-0.5	0
16	O=C(/C=C/c1ccccc1)OCCCN=C1NS(=O)(=O)c2ccccc21	-6	5.0	-1.6%	4	-0.4	-3
17	COc1c2ccoc2c(OC[C@@H](OC(C)=O)C(C)(C)O)c2oc(=O)ccc12	0	2.5	1.1%	27	-0.7	6
18	O=C(CSc1ccc2ccccc2c1)Nc1ncccn1	2	-2.0	1.0%	-2	1.1	-18
19	COc1ccc(CNC(=O)COC(=O)CCCOc2ccc(Cl)cc2Cl)cc1	-1	-9.6	0.9%	4	-0.8	-3
20	CCOC(=O)c1c(C)[nH]c(C)c1C(=O)COC(=O)/C=C/c1cccc(F)c1	-6	-3.0	1.9%	0	2.1	20
21	COc1ccccc1-c1c(C)nn2c(N3CCC(C(N)=O)CC3)cc(C)nc12	0	-3.4	-0.2%	-8	-0.9	-6
22	C=CCOc1ccc(CN(C)CC(=O)Nc2ccc3c(c2)CCC3)cc1	1	2.9	u	-1	0.7	-6
23	CCC(=O)Nc1ccccc1-c1nnn(CC(=O)N2c3ccccc3CC2C)n1 (stereo not given)	15	-0.9	x	0	1.4	-3
24	CCN(CC)C(CNC(=O)CSc1nnnn1-c1cccc(F)c1)c1ccco1 (stereo not given)	x	-5.5	2.1%	-2	-0.1	-7
25	COc1ccc(NC(=O)c2cccnc2)c([N+](=O)[O-])c1	-14	0.6	4.2%	1	-0.7	-9
26	COc1cc(C(=O)O)ccc1O	x	-6.0	0.4%	5	0.2	-9
27	COc1cccc(-c2cc(NC(C)=O)c3ncc(-c4ccc(OC)c(OC)c4)n3c2)c1	-24	-3.5	3.6%	-16	-0.1	-20
28	O=C1CN2NC(=S)N(c3ccccc3)C2=CN1c1ccc(Cl)cc1	x	-6.9	-0.2%	3	3.0	-29
29	O=C(Nc1cccn(Cc2c(Cl)cccc2Cl)c1=O)c1ccccc1Cl	2	2.2	-1.3%	-8	0.5	5
30	O=C(O)CCCCCCCCc1cn(CN2C(=O)c3ccccc3C2=O)nn1	-9	-2.1	0.0%	28	0.5&-0.6	-7

Profiles, quoted from the list:
CC(C)C(C)NC(=O)COc1ccc(OCc2ccccc2)cc1 (stereo not given) is listed as CtBP-E1A inh: 6; D2 agonist: -0.8; PINK1 expr mod: 0.5%; Six1-Eya2 blk: 6; TRPML1 ag: 3.2; D2 potentiator: -2
CCCn1c2ccccc2c2cnn(CC(=O)NCCCN3CCCCC3)c(=O)c21 is listed as CtBP-E1A inh: x; D2 agonist: -2.3; PINK1 expr mod: 0.8%&2.5%; Six1-Eya2 blk: -22; TRPML1 ag: 0.9&2.3; D2 potentiator: -13

Following part:
item	Molecule	CtBP-E1A inh	D2 agonist	PINK1 expr mod	Six1-Eya2 blk	TRPML1 ag	D2 potentiator
31	CC(C)(C)OC(=O)N[C@@H](COCc1ccccc1)C(=O)N[C@@H](CO)[C@H](O)[C@@H]1C[C@@H]1C(=O)NC1CC1	-12	-1.3	3.1%	-2	-0.3	-8
32	COc1cc(C(=O)Nc2cc3c(cc2N2CCCCC2)n(C)c(=O)n3C)cc(OC)c1OC	x	-5.6	9.4%	-17	-0.3	0
33	COc1ccc(Cl)cc1NC(=O)CCNC(=O)OCc1ccccc1	x	-0.2	3.0%	0	-1.1	-5
34	COc1ccc(S(=O)(=O)N2CCOCC2)cc1NC(=O)CCCOc1ccc(Cl)cc1C	0	-2.7	0.7%	17	1.8	-4
35	Cc1c(C(O)CN2CCN(Cc3ccc4c(c3)OCO4)CC2)c2ccccc2n1C (stereo not given)	-29	1.0	-6.3%[38.3 µM]	-24	6.0	-15
36	CCCNC(=O)C1CCN(c2nc(C)cc(C)n2)CC1	-1	-2.2	0.5%	0	0.0	-5
37	Cc1ccc(-c2nnc(SCC(=O)NC(=O)Nc3ccc(C)cc3C)n2N)cc1	1	1.1	3.0%	6	0.8	-6
38	O=C(Cc1ccc2c(c1)CCCC2)Nc1ccc2ccccc2c1	5	0.3	5.5%	-4	1.9	0
39	O=C(Cc1ccc(O)cc1)N/N=C/c1cccs1	-15	-3.5	-0.8%	-5	1.1	-14
40	CCc1nc2c(OCc3cccc(Cl)c3)cccn2c1N(C)C(=O)CC(C)C	0	-3.9	1.0%	-15	2.2	-3
41	Cc1ccc(-c2nn(-c3ccccc3)cc2C(=O)N2CCN(c3ccccn3)CC2)cc1	8	3.7	0.8%	-17	0.2	-21
42	O=C1C2C(C(=O)N1/N=C/c1cc([N+](=O)[O-])ccc1O)C1C=CC2C12CC2 (stereo not given)	7	-4.3	x	4	0.2	-22
43	COc1ccc(OC)c(N(CC(=O)Nc2ccccc2)S(=O)(=O)c2ccccc2)c1	-6	-2.7	4.6%	-3	2.2	-1
44	COc1ccc(-c2nnc(SCC(=O)N(C)C3CCS(=O)(=O)C3)n2C(C)C)cc1 (stereo not given)	-2	-3.4	1.7%	-7	-0.1	-6
45	O=C(Cn1cc2c(n1)CCCCC2)NCc1cccs1	8	-3.0	-0.9%	2	1.1	-1
46	COc1cc(C(O)P(=O)(OCC(C)C)OCC(C)C)cc(OC)c1OC (stereo not given)	-2	-1.6	-1.1%	0	-0.6	9
47	CCOC(=O)c1c(-c2ccccc2)oc2ccc(OCC(=O)NNC(=O)CCC(=O)O)cc12	x	-4.7	2.4%	u	1.3	-3
48	COc1cc(Cl)c(C)cc1NC(=O)CSc1cc(Cl)ccc1Cl	12	1.2	0.5%	4	1.1	-12
49	COc1ccccc1N=Nc1nc(-c2ccccc2)c(-c2ccccc2)[nH]1	13	-10.0	0.4%	u	1.4	-30
50	O=C(O)C[C@@H](O)C(=O)O	-5	-4.4	1.5%	0	-0.8	-7
51	Cc1oc(-c2ccccc2F)nc1CN1CCC(C(=O)NC2CCCCCCC2)CC1	-8	-5.9	0.8%	-4	-0.7	-24
52	Cc1nnc(C)n1/N=C/c1ccc(C(=O)O)cc1	0	-0.3	-4.2%	4	-0.7	1
53	Cc1ccc2c(CN(C)Cc3ccccc3)cc(=O)oc2c1C	6	-1.0	4.0%	14	0.2	-10
54	O=C(COC(=O)c1cc(Br)ccc1O)NNC(=O)c1ccc([N+](=O)[O-])cc1	2	-0.7	0.5%	-9	-0.8	0
55	CCOC(=O)c1ccc(NC(=O)CC2NCCNC2=O)cc1 (stereo not given)	-3	-1.1	0.7%&1.1%	9	1.0&0.1	-3
56	CCOC(=O)c1nnsc1NC(C)=O	6	-4.2	4.0%	-5	-0.7	-2
57	O=C(c1ccccc1)N1CCc2[nH]nc(-c3ccccc3)c2C1	x	4.7	0.2%	3	0.5	-7
58	O=C(Nc1ccccc1)c1ccc(-c2ccccc2C(F)(F)F)o1	14	-1.7	u	7	1.7	-22
59	Cc1ccn(S(=O)(=O)c2ccc(C(C)(C)C)cc2)n1	9	-5.1	0.4%	-1	-0.1	-17
60	COc1ccc(CC(=O)Nc2ccc(S(=O)(=O)N(C)C)cc2)cc1OC	-1	-3.9	-1.0%	-2	-0.7	-12
61	COCCCNC(=O)c1cc2c(=O)n(C)c3ccccc3c2n1C	0	3.2	10%	2	0.2	-1
62	CCOCCCNC(=O)C1c2ccccc2C(=O)N2CCc3ccccc3C12 (stereo not given)	6	-2.9	2.3%[38.3 µM]	7	0.6	-9
63	COc1ccccc1CCC(=O)OCC(=O)Nc1ccc2[nH]c(=O)[nH]c2c1	-7	0.2	-0.3%	4	0.1	-6
64	O=C(CSc1nnc2c3c4c(sc3ncn12)CCCC4)NCc1ccco1	-1	-1.9	-1.3%	-3	2.8	15
65	COc1ccc(N2CCN(Cc3nc4c(c(=O)n(C)c(=O)n4C)n3Cc3cccc(C)c3)CC2)cc1	-20	-5.1	-1.1%	0	-0.2	-6
66	CCC(=O)Nc1ccc(NC(=O)Cc2ccccc2)cn1	-15	-4.4	-0.8%	6	0.4	-1
67	COc1cc2c(C(=O)N3CCOCC3)c(CSc3ccccc3)n(C)c2cc1Br	u	4.9	0.9%	-25	5.9	1
68	COc1ccc(O)c(CN2CCN(CCc3ccccc3)C(CCO)C2)c1 (stereo not given)	-7	-5.9	-0.4%	-18	-1.7	-17
69	Cc1ccc(C)c(C(=O)OCC(=O)NC(=O)NCc2ccccc2)c1	0	-4.8	9.0%	-15	1.5	-4

Laid out differently: 3 of the compounds above
(66) CCC(=O)Nc1ccc(NC(=O)Cc2ccccc2)cn1
(64) O=C(CSc1nnc2c3c4c(sc3ncn12)CCCC4)NCc1ccco1
(68) COc1ccc(O)c(CN2CCN(CCc3ccccc3)C(CCO)C2)c1 (stereo not given)

Assay by compound,66,64,68
CtBP-E1A inh,-15,-1,-7
D2 agonist,-4.4,-1.9,-5.9
PINK1 expr mod,-0.8%,-1.3%,-0.4%
Six1-Eya2 blk,6,-3,-18
TRPML1 ag,0.4,2.8,-1.7
D2 potentiator,-1,15,-17
